Screening data deposited in PubChem by Broad Institute.
Tg IFNy HTS: T. gondii growth inhibition with IFN-gamma, primary screen, cell-based. Toxoplasma gondii growth in IFN-gamma-treated host cells; active compounds read low; reference of the scale not given here. activity change, negative = inhibition, %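 (about 20 µM by stock and volumes)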. 69,000 compounds, 3.8% hits. AID 1259416, 2018;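 active = below -70%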;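 also: host cells are HeLa cells infected with Toxoplasma gondii; parasite growth read as luciferase light; one replicate is shown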
Active calls of the source: *; i = inactive. This is a subset (hit frequency here may not be typical).

SMILES	Tg IFNy HTS
Cc1cc(C(=O)N2CC[C@@H]3OCCN(C(C)C)[C@@H]3C2)n[nH]1	-1
Cc1cccc(-c2nnc(-c3nc(N4CCOCC4)c4ccccc4n3)o2)c1	i
CCOC(=O)c1cnc(NC(=O)N2C3CCCCC2CCC3)[nH]1	-3
CCc1c(C)nn(CC(=O)NC(C)c2ccc(O)c(F)c2)c1C (stereo not drawn)	2
COc1cccc(=O)c2c(C)n(CC(=O)c3ccccc3)c(C)c12	33
CC(=O)N1CCC(C(=O)NCc2ccccc2)(N(Cc2ccc3c(c2)OCO3)C(=O)c2ccc(C)cc2)CC1	-30
COCCN1Cc2cccc(C(=O)NC(C)Cc3ccccn3)c2C1=O (stereo not drawn)	-47
Fc1ccc(CSc2nc(Nc3ccc(F)cc3)c3ccccc3n2)cc1	-40
CCCNC(=O)N(Cc1cccnc1)C[C@H]1N[C@H](CO)[C@@H]1c1ccccc1	-5
O=C(NCc1ccc(Cl)cc1)c1nc(Nc2ccc(F)cc2)c2ccccc2n1	47
Nc1ncc(CN2CCC(CNC(=O)Nc3ccc(F)cc3)C2)cn1 (stereo not drawn)	-1
CCOc1ccc(-c2nc(CN(C)S(=O)(=O)c3ccc(C)cc3C)c(C)o2)cc1	-40
Cc1ccccc1-c1ncc(CN(Cc2nccn2C)C2CC2)s1	22
Cn1c(Cc2ccsc2)nnc1Sc1nc2ccc(Cl)cc2s1	16
COc1cccc(C(=O)N2CCN(S(=O)(=O)c3cc4c5c(c3)CCN5C(=O)CC4)CC2)c1	6
CCC(C)Nc1nc(-c2ccc(OC)cc2)nc2ccccc12 (stereo not drawn)	-47
COc1ccc(C[C@H]2CN(C3CCOCC3)CC[C@H]2OCC2CC2)cc1	-8
COCCCNC(=O)N1CCC2(CC1)Nc1cc(OC)ccc1-n1cccc12	160
N#CCc1ccc(OC(=O)c2ccncc2)cc1	-20
COc1ccccc1-c1ccc(C2[C@H]3CNC[C@@H]2N3Cc2ccc(F)cc2)cc1 (stereo partly drawn)	0
c1ccc(COc2ccccc2CN2CCC3(CCNCC3)C2)cc1	-35
C=C(C)COc1cccc(C(=O)N2CCCn3cncc3C2)c1	5
CCN(C(=O)c1cccc(C#CC(C)(C)O)c1)C1CCOC(C)(C)C1 (stereo not drawn)	-38
Cc1cc(C)nc(NN2C(=O)CSC2=S)n1	-1
COc1ccccc1C(=O)Nc1cnc2sc3c(n2c1=O)CCC(C(C)(C)C)C3 (stereo not drawn)	-56
CCC(=O)N1CCc2ncnc(Nc3ccc(C)cc3)c2CC1	-7
CCc1ccc(N(CC(=O)N2CCOCC2)S(C)(=O)=O)cc1	48
N#CCSC1=Nc2ccccc2C2=NC(CCC(=O)NCc3ccccc3)C(=O)N12 (stereo not drawn)	-15
c1ccc(N2CCCN(Cc3ccc(-n4ccnc4)cc3)CC2)cc1	15
Cn1ccnc1CN1CCC(c2cc(Cc3ccccc3)[nH]n2)CC1	1
CCN(CC)C(=O)c1cc(=O)n(CC(=O)Nc2ccc(F)c(Cl)c2)c2ccccc12	-4
C=CCN1CCN(C(=O)Cc2ccsc2)Cc2cccnc21	-4
Cc1ccc(CNC(=O)CN2C(=O)CCc3cc(S(=O)(=O)N4CCCCC4)ccc32)cc1	-63
O=C(CNC(=O)c1ccccc1)OCC(=O)c1cccs1	-12
OC1(C(F)(F)F)CC(c2cc3ccccc3o2)=NN1 (stereo not drawn)	-28
C[C@H]1CC(=O)N[C@H](c2ccccc2)C/C=C\C[C@H](c2ccc3c(c2)OCO3)NC1=O	46
CCOCC(=O)N1CCC2(C=Cc3ccccc32)CC1	24
Cc1cnn(Cc2ccc(Cl)cc2)c1NC(=O)c1ccnn1C(F)F	-46
Cc1nc(-c2cc(S(=O)(=O)NCCN3CCC(C)CC3)c(C)s2)sc1C	-14
CC(=O)NC1C(Oc2ccc(C(C)(C)C)cc2)OC(CO)C(O)C1O (stereo not drawn)	26
COc1cccc(-c2nc3c(s2)CN(C(=O)Nc2ccc(OC)cc2OC)CC3)c1	35
CN(Cc1cccnc1)C1CCN(C(=O)c2ccoc2)C(C)(C(=O)O)C1 (stereo not drawn)	24
CCn1c(SCc2cccnc2)nnc1-c1c[nH]c2ccccc12	i
CN1c2ccc(Br)cc2[C@@H]2[C@@H](CCN2C(=O)CN2CCOCC2)[C@@H]1CO	8
Cc1nc([C@H]2C[C@@H]3CCN(C(=O)Cc4ccccc4C)C[C@@H]3O2)n[nH]1	-2
Cc1cc2ccccc2n1CCC(=O)N1CCC2(CC1)CNC(=O)C2	4
Cc1nc2ccccc2c(=O)n1CC(=O)N(C1CCCCC1)C1CCCCC1	-5
OC1c2ccccc2OC2(N3CCCC3)CCCCC12 (stereo not drawn)	30
CC(CNC(=O)CCNC(=O)c1ccccc1F)n1cncn1 (stereo not drawn)	50
CCc1ccc(CN(C(=O)c2ccc(C)cc2)C2(C(=O)NCc3ccccc3)CCN(C(C)=O)CC2)cc1	54
CCc1cc(-c2cccc3ccnn23)ccc1NC(C)=O	7
OC[C@H]1[C@@H]2c3ccccc3NC[C@@H]2N1Cc1ccccc1Cl	-1
CCn1cc(Cn2ccnc2-c2cccc(Cn3cccn3)c2)cn1	4
CC1(C)CNC(=O)c2nc(C3OCCc4ccccc43)[nH]c2C1 (stereo not drawn)	-12
CN(C)CC1(O)CCCN(C(=O)c2ccccc2-c2ncn[nH]2)C1 (stereo not drawn)	-4
Cn1ccnc1CN(CCCn1ccnc1)Cc1ccccc1F	-14
Nc1cc(-c2ccc(F)cc2)nc(N)n1	-8
Cc1ccc2c(c1)NC1(CCN(S(=O)(=O)c3ccc(Cl)cc3)CC1)c1cccn1-2	11
O=C(c1ccc2c(c1)OCO2)N1CC[C@@H]2[C@H]1c1cc(C#Cc3ccccc3)ccc1N[C@@H]2CO	-36
CCc1nc(CN(C)C(=O)C2(Oc3ccc(C)cc3)CCNCC2)no1	57

(continued)
SMILES	Tg IFNy HTS
Cc1ccccc1CN[C@@H]1COC[C@H]1c1ccc(F)cc1	-57
Cc1nn(-c2ccc(F)cc2)c(C)c1CNC(=O)C(C)n1c(C)nc2ccccc21 (stereo not drawn)	-46
c1c(CN2CCC(c3nnc4n3CCCCC4)CC2)nn2c1CNCCC2	-7
Cc1ccccc1-c1nc(CN2CCN(C(=O)Nc3ccc(F)cc3)CC2)c(C)o1	0
Fc1ccc(NCc2nnc(SCc3ccccc3)o2)cc1	-46
Cc1ccccc1NC(=O)CN1C(=O)CCc2cc(S(=O)(=O)N3CCCC3)ccc21	30
COCCN1CC(CNc2nccc(-c3c(C)nn(C)c3C)n2)CC1=O (stereo not drawn)	-69
O=C(Cc1nc(O)cs1)c1ccccc1	-13
CC(=O)NCCCS(=O)(=O)O	31
O=C(Nc1ccc2c(c1)OCCO2)N1CCC2(CC1)Nc1cc(F)ccc1-n1cccc12	i
CN1C(=O)c2cc(NC(=O)Cc3cccs3)ccc2OC[C@H]2O[C@H](CC(=O)NCc3ccc(-c4ccccc4)cc3)CC[C@@H]21	-85*
CCN1C(=O)CCc2cc(NC(=O)c3ccc4c(c3)OCO4)ccc21	-87*
Cc1cc(CNC(=O)c2cccc(NCc3ccc(F)cc3)c2)n[nH]1	22
COc1ccc(CC(=O)N2CCC3(CC2)Nc2cc(F)ccc2-n2cccc23)cc1	87
CO[C@H]1CCN(C(=O)c2cnccn2)[C@H]2CN(Cc3ccco3)C[C@@H]12	-2
CCOc1ccccc1-c1nc(Cn2c(=O)c3c(C(=O)OC)cc(C)nc3n(C)c2=O)c(C)o1	4
CC(C)c1ncc(CN2CCCC(CCc3cccc(C(F)(F)F)c3)C2)cn1 (stereo not drawn)	-11
CSc1ncc(Cn2cnc(-c3ccccc3)c2-c2nccn2C)n1C	-5
COCCC(=O)NCC1Cc2cc(-c3cccc(C(=O)OC)c3)cc(Cl)c2O1 (stereo not drawn)	2
O=C(O)c1ccc(OCc2ccccc2)cc1	-3
O=C(C[C@@H]1CC[C@@H]2[C@H](COC[C@@H](O)CN2Cc2ccc(Oc3ccccc3)cc2)O1)N1CCN(c2ccccc2)CC1	-52
Cc1[nH]c(=O)[nH]c1C(=O)CCCCC(=O)O	24
COc1cc(NC(=O)Cc2c(C)noc2C)ccc1-n1nc(C)cc1C	-9
COC(=O)c1sccc1-c1ccc(-c2ccn(S(=O)(=O)c3ccc(Cl)cc3)n2)o1	38

3 records drawn at random from the list so far, as already listed:
SMILES	Tg IFNy HTS
CN1c2ccc(Br)cc2[C@@H]2[C@@H](CCN2C(=O)CN2CCOCC2)[C@@H]1CO	8
CN(Cc1cccnc1)C1CCN(C(=O)c2ccoc2)C(C)(C(=O)O)C1 (stereo not drawn)	24
Cc1cccc(-c2nnc(-c3nc(N4CCOCC4)c4ccccc4n3)o2)c1	i

The list goes on.
SMILES	Tg IFNy HTS
CCN1c2ccc(C)cc2C(=O)NC12CCN(C(=O)c1cccc(Cl)c1)CC2	12
Cc1nc2ccccc2c(=O)n1N	23
Cc1ccc(NC(=O)c2nn(C)cc2Br)cc1C	257
Cc1ccc(N2CCOc3c(O)cc(-c4ccccc4C)cc3C2)nn1	-13
Cc1nc(-c2ccccn2)nc(N(C)c2ccccc2)c1Cl	-101*
O=C(NCc1cccnc1-n1cncn1)c1ccc2c(c1)CCCO2	-15
FC(F)(F)c1cc(C(F)(F)F)[nH]n1	-19
O=C(c1cc2cc(Cl)cc(Cl)c2oc1=O)N1CCc2ccccc2C1	2
COc1ccccc1N(Cc1nc(-c2ccc(C)cc2)oc1C)S(=O)(=O)c1ccccc1	4
COc1ccc2c3c([nH]c2c1)[C@H](CO)N(Cc1ccncc1)CC31CN(C(=O)CN(C)C)C1	11
COCC(=O)Nc1ccc2c(c1)OC[C@H](C)N(C)C[C@@H](C)[C@@H](OC)CN(C)C2=O	2
Cc1ccccc1N1CCN(C(=O)c2ccc(C#CC(C)(C)O)o2)C(C)C1 (stereo not drawn)	4

In another format: three of the compounds above.
smiles: Cc1ccc(NC(=O)c2nn(C)cc2Br)cc1C
  Tg IFNy HTS: 257
smiles: Cc1nc2ccccc2c(=O)n1N
  Tg IFNy HTS: 23
smiles: COCC(=O)Nc1ccc2c(c1)OC[C@H](C)N(C)C[C@@H](C)[C@@H](OC)CN(C)C2=O
  Tg IFNy HTS: 2

(more compounds)
SMILES	Tg IFNy HTS
COc1ccccc1C#Cc1ccc([C@H]2[C@@H](CO)N3CCCCN(C(=O)C4CCC4)C[C@@H]23)cc1	-27
CCCc1[nH]c(=O)cc2cc(OC)c(OC)cc12	-40
CN(Cc1nc2ccc(F)cc2[nH]1)C1CCN(C(=O)c2ccccc2)CC1	0
Cc1oc(-c2ccc(NC(=O)c3ccc(N(C)C)cc3)cc2)nc1Cn1cccn1	76
COCC(=O)N1[C@H](C#N)[C@H](c2ccccc2C2=CCCC2)[C@@H]1CO	-21
c1cc(-c2ccc(CN3CCOC4(CNCCOC4)C3)o2)[nH]n1 (stereo not drawn)	1
C[C@@H](NC(=O)C[C@@H]1C=C[C@H](NS(=O)(=O)c2cccc(F)c2)[C@@H](CO)O1)c1ccccc1	9
Cn1c(Cc2nn(C)c(=O)c3ccccc23)nnc1SCc1ccc(Cl)cc1Cl	2
CCOc1ccc(CN2CCOC(c3ccc(F)cc3)C2)cc1CO (stereo not drawn)	-61
COc1ccc(C(=O)Nc2ccccc2C(=O)NCCCn2ccnc2)cc1	9
COc1ccc(OC)c(CN2CCN(c3cc(OC)ncn3)CC2)c1	40
O=C(Nc1cccc(N2CCC(NCCc3ccccc3C(F)(F)F)CC2)c1)c1ccncc1	5
Cc1cc(C)nc(NS(=O)(=O)c2ccc(NC(=S)NC(=O)COc3ccc(Br)cc3Cl)cc2)n1	15
CC12CC3CC(C)(C1)CC(C(=O)NCCCc1ccncc1)(C3)C2	-3
CN1CCN(C(=O)C[C@@H]2CC[C@H]3[C@H](COc4ccc(NC(=O)C5CCOCC5)cc4C(=O)N3C)O2)CC1	2
CCC(=O)N1[C@H](CO)[C@H](c2ccccc2)C12CN(C(=O)CN1CCOCC1)C2	87
CC(Cc1cccs1)NC(=O)C(C)Cc1cccs1 (stereo not drawn)	24
CCCS(=O)(=O)N1CCc2c(CNc3ncccn3)cncc2C1	-61
O=c1nc2cccc3c2=c(/c1=C(\O)c1ccccc1)c1ccccc1c3=O	-3
N#C[C@H]1[C@@H](c2ccccc2)[C@H](CO)N1S(=O)(=O)c1cccc(F)c1	5
O=C(NCC1CNCCOC1)NC1CCCCC1 (stereo not drawn)	1
Cc1cccc(S(=O)(=O)N2CCCn3nnc(Cn4cccn4)c3C2)c1	9
Cn1ccnc1CN(C(=O)c1ccc(C#CC(C)(C)O)o1)C1CC1	45
COc1cccc(OC)c1C(=O)NCCc1sc(-c2cccc(F)c2)nc1C	69

Single values from the results shown:
CC(Cc1cccs1)NC(=O)C(C)Cc1cccs1 (stereo not drawn) – Tg IFNy HTS: 24
CCC(=O)N1[C@H](CO)[C@H](c2ccccc2)C12CN(C(=O)CN1CCOCC1)C2 – Tg IFNy HTS: 87
Cc1cc(C)nc(NS(=O)(=O)c2ccc(NC(=S)NC(=O)COc3ccc(Br)cc3Cl)cc2)n1 – Tg IFNy HTS: 15
Cc1cccc(S(=O)(=O)N2CCCn3nnc(Cn4cccn4)c3C2)c1 – Tg IFNy HTS: 9
Cn1ccnc1CN(C(=O)c1ccc(C#CC(C)(C)O)o1)C1CC1 – Tg IFNy HTS: 45
CC12CC3CC(C)(C1)CC(C(=O)NCCCc1ccncc1)(C3)C2 – Tg IFNy HTS: -3
O=c1nc2cccc3c2=c(/c1=C(\O)c1ccccc1)c1ccccc1c3=O – Tg IFNy HTS: -3

More entries:
SMILES	Tg IFNy HTS
O=C(c1cc(-c2ccc(O)cc2)n[nH]1)N1CCC2(CCCO2)CC1	-8
Cc1nc(CN(C)Cc2cc(-c3ccccc3)no2)co1	36
COC(=O)CSc1nnc(-c2ccccn2)o1	16
CN(C[C@H]1[C@H](c2ccccc2)[C@H](CO)N1Cc1ccccn1)S(C)(=O)=O	6
Cc1csc(NC(=O)Nc2ccc(C(C)(C)C)cc2)c1-c1nc2ccccc2s1	26
CN(C(=O)c1cc(N2CC[C@@H](O)C2)ccn1)C1CCCCC1	1
Cc1ccc(C(=O)NCCc2csc(-c3cccc(F)c3)n2)cc1C	-11
O=C1CN(Cc2cccn2-c2ncccn2)CC(OCc2ccccn2)CN1C1CCCCC1 (stereo not drawn)	4
CCCc1sc(C(=O)O)cc1-c1ccncc1	2
O=C(CN1CCOc2ccccc2C1)NCc1cn[nH]c1-c1cccs1	-4
